AF4-AF9 inh: inhibitors of AF4 peptide binding to AF9, primary screen, biochemical, AlphaScreen, biotin-AF4 peptide, FLAG-AF9, single point. inhibition, % at 10 µM. actives 0.47% (n = 350,000). Protein AF-9 (Homo sapiens), P42568;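 active means every replicate reaching a set inhibition limit, whatever the replicate mean, cut at about 25% in these data; inconclusive means mean inhibition reaches that limit but some replicates miss it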;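 further: 0% = plate neutral control median and 100% = total signal loss; the record names both 10 and 1 µM as test concentration; the first replicate is given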
Vif A3G: inhibitors of Vif binding to APOBEC3G peptide, primary screen, biochemical, TR-FRET, GST-Vif 1-94, biotin-A3G peptide, dose response retest (AID 1117319) | Virion infectivity factor (Human immunodeficiency virus type 1 group M subtype B (isolate … | TR-FRET GST-Vif / biotin-A3G peptide binding; higher % means a stronger effect; test concentration not given here; strong numbers were not always called active | one-dose inhibition, %; IC50 in µM for titrated hits | actives 0.57% (n = 260,000);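 active means above the screen mean plus three standard deviations and confirmed in dose response; inconclusive means results disagree or hit not tested in dose response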;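 further: Vif residues 1-94 fused to GST binding biotinylated APOBEC3G peptide 110-148; 0% = full assay without inhibitor and 100% = GST in place of GST-Vif; retest series ran down from 100 µM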
HNF4A DNA FP: change in binding of human HNF4A to DNA, primary screen, biochemical, fluorescence polarization, FITC-DNA | Hepatocyte nuclear factor 4-alpha (Homo sapiens), P41235 | 1 h | activity change, % at 10 µM | actives 0.3% (n = 360,000); in the data active means activity change above about 30%, passing the limit was not always enough;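 further: controls were the assay level and a saturating level of protein; the project sought stronger binding though the title names inhibitors; some compounds called inactive have numbers as strong as hits; positive values seem to mean higher polarization but the record does not say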
Target sequence (P41235 whole entry, looked up): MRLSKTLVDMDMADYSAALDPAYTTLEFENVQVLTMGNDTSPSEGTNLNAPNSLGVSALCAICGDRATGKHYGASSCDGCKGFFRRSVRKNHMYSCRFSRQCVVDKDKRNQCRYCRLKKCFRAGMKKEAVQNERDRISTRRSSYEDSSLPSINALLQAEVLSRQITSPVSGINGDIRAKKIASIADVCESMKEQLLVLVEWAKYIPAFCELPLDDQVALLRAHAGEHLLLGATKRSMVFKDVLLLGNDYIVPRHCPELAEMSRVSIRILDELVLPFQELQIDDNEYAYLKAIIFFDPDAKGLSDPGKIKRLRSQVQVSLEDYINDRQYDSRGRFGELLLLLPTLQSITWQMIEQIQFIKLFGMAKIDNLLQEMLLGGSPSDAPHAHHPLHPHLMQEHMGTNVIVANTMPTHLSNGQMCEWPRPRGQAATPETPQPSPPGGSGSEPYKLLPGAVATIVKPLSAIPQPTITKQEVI
FGF22 binding: binders of human FGF22 protein, primary screen, FGF22 synaptogenesis inhibitor project, biophysical, thermal shift, single point; Fibroblast growth factor 22 (Homo sapiens), Q9HCT0; calls only at 9.99 µM; AID 651658, 2012; actives 1.5% (n = 340,000); recombinant FGF22 thermal shift, SYPRO orange fluorescence; percent of sucrose octasulfate shift, DMSO zero;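 active means melting point raised past a set limit in the mean and every replicate; inconclusive means no clear call; three in four hits are not shown here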
Target sequence (Q9HCT0 whole entry, looked up): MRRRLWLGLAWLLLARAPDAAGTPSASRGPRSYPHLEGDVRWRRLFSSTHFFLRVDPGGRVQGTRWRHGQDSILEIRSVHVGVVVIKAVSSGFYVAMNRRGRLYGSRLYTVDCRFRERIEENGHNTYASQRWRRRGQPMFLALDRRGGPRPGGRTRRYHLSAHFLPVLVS
ALR inh: inhibitors of human ALR sulfhydryl oxidase, primary screen, biochemical, H2O2 detection, HRP-luminol luminescence, single point. FAD-linked sulfhydryl oxidase ALR (Homo sapiens), P55789. purified ALR, DTT oxidation. inhibition, % (test concentration not listed). actives 3.8% (n = 290,000). AID 485317, 2010;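 active means mean and each replicate at 75% or more; inconclusive means only one of the two met; inactive means neither met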;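 further: stock transfer was 7.5 nL into about 7.5 µL; 0% = neutral wells and 100% = wells with inactivated enzyme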
Target sequence (P55789 whole entry, looked up): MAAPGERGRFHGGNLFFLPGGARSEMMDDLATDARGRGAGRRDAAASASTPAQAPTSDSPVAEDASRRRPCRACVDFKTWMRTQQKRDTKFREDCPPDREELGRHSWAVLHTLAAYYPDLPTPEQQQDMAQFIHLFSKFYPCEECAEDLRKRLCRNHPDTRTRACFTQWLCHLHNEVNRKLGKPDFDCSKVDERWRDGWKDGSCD
Ecoli growth: E. coli growth inhibition, primary screen, OD600 | actives 0.21% (n = 330,000) | AID 1053175, 2014 | Escherichia coli growth, 23 h; stronger effect = lower value | OD600 absorbance (concentration not given with the values);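 active means OD600 absorbance below the run mean of sample wells minus 3.6 SD, in any replicate, cut at about 0.56 in these data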;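 further: stock transfer was 300 nL into about 60 µL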
rRNA inh HTS: reduced GFP signal of wild-type E. coli, primary screen, bacterial rRNA inhibitor project, GFP/RFP fluorescence, OD600, single point. E. coli WT GFP vs humanized-ribosome RFP mutants, 24 h; stronger effect = lower value; DMSO median 0, no signal -100. GFP signal change (wild-type ribosome), % (test concentration not listed). actives 1.6% (n = 350,000). AID 720706, 2013;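 active means significant combined selectivity score with lowered wild-type GFP, culture density cut under 30%, mutant RFP and density less affected; inactive means any of these conditions unmet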; further: one replicate is shown; some compounds called inactive have numbers as strong as hits
rRNA inh HTS OD600: recorded beside rRNA inh HTS, whose call it bears; OD600 change, %; measured here: OD600 growth;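 optical density of the mix in the first replicate; 0 = DMSO median and -100 = no signal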
rRNA inh HTS RFP: second read-out of rRNA inh HTS, no call of its own (marks repeat the call); RFP signal change, %; measured here: RFP humanized mutant strains;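 first replicate; 0 = DMSO median and -100 = no signal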
* marks the source's active call; other numbers are inactive results; & = joins results of further samples. Some of the compounds tested. The share of hits here may be higher or lower than overall.

Screening O=C(N[C@H]1C=C[C@@H](CC(=O)N2CCOCC2)O[C@@H]1CO)c1ccc2c(c1)OCO2 returned AF4-AF9 inh 0.2, FGF22 binding inactive, rRNA inh HTS 2, rRNA inh HTS OD600 -2 and rRNA inh HTS RFP -2.0.
For Cc1ccc(S(=O)(=O)N(C)C[C@H]2OCCCC[C@@H](C)Oc3ccc(NC(=O)NC4CCCCC4)cc3C(=O)N([C@H](C)CO)C[C@H]2C)cc1 the results were AF4-AF9 inh 1.9, FGF22 binding inactive, rRNA inh HTS -1, rRNA inh HTS OD600 -4 and rRNA inh HTS RFP -1.2.
Screening Cn1cnc([N+](=O)[O-])c1Nc1cccc(O)c1 returned Vif A3G -9%, HNF4A DNA FP -1.8, ALR inh 20 and Ecoli growth 0.72.
For Cc1ccc(NC(=O)CCOc2ccccc2C)cc1C the results were AF4-AF9 inh -0.4, HNF4A DNA FP 2.1, FGF22 binding inactive, ALR inh 1, Ecoli growth 0.67, rRNA inh HTS -7, rRNA inh HTS OD600 -14 and rRNA inh HTS RFP 0.7.
Screening O=C(N[C@@H]1CC[C@@H](CC(=O)N2CCCCC2)O[C@H]1CO)c1ccccn1 returned AF4-AF9 inh -7.2, FGF22 binding inactive, rRNA inh HTS -1, rRNA inh HTS OD600 3 and rRNA inh HTS RFP -0.9.
Screening CCOC(=O)C1C(c2cc(OC)c(O)c(OC)c2)NC(=S)NC1(O)C(F)(F)F (configuration not stated) returned AF4-AF9 inh -8.1, HNF4A DNA FP 0.1, FGF22 binding inactive, ALR inh 67 and Ecoli growth 0.69.
For Cc1ccccc1CN1C(=O)c2ccccc2S1(=O)=O the results were AF4-AF9 inh 0.1, HNF4A DNA FP 0.2, FGF22 binding inactive, Ecoli growth 0.69, rRNA inh HTS 0, rRNA inh HTS OD600 -20 and rRNA inh HTS RFP -1.5.
S=C(NCCN(C1CCCCC1)C1CCCC1)Nc1cccc(Cl)c1 was read as AF4-AF9 inh 13, Vif A3G -4%, HNF4A DNA FP 3.2, FGF22 binding inactive, ALR inh -1, Ecoli growth 0.61, rRNA inh HTS -31, rRNA inh HTS OD600 -63 and rRNA inh HTS RFP -3.0.
`CCOC(=O)C1CCN(C(=O)COc2ccc(S(=O)(=O)N3CCOCC3)cc2C)CC1` gave AF4-AF9 inh -4.3, HNF4A DNA FP 4.0, FGF22 binding inactive, ALR inh 4, Ecoli growth 0.68, rRNA inh HTS 20, rRNA inh HTS OD600 9 and rRNA inh HTS RFP 8.3.
For Cc1ccc(NC(=O)NCCc2ccc(S(N)(=O)=O)cc2)cc1 the results were Vif A3G 4%, HNF4A DNA FP -1.6, ALR inh -7 and Ecoli growth 0.76.
`C[C@@H]1CN([C@H](C)CO)C(=O)c2cc(NS(=O)(=O)c3ccc(F)cc3)ccc2O[C@@H](C)CCCCO[C@@H]1CN(C)S(=O)(=O)c1ccccc1` gave AF4-AF9 inh -3.4, FGF22 binding inactive, rRNA inh HTS -4, rRNA inh HTS OD600 1 and rRNA inh HTS RFP 0.7.
Screening Cc1ccccc1C(=O)N1CCc2c([nH]c3ccccc23)C1C(F)(F)F (configuration not stated) returned AF4-AF9 inh 8.2, HNF4A DNA FP 0.4, FGF22 binding inactive, Ecoli growth 0.68, rRNA inh HTS -46, rRNA inh HTS OD600 -75 and rRNA inh HTS RFP -7.6.
CC(C)COC(=O)N(C)C[C@@H]1OCc2cn(nn2)CCCC(=O)N([C@H](C)CO)C[C@H]1C was read as AF4-AF9 inh -2.0, FGF22 binding inactive, rRNA inh HTS 0, rRNA inh HTS OD600 -4 and rRNA inh HTS RFP -1.5.
For O=C(NC(=S)Nc1ccc2oc(-c3cccnc3)nc2c1)c1cccc(Cl)c1 the results were Vif A3G -2%, HNF4A DNA FP 1.3, ALR inh -10 and Ecoli growth 0.78.
Screening O=C(NCc1nnc(SCC(=O)N2CCCCCC2)o1)c1ccco1 returned Vif A3G -1%, HNF4A DNA FP 0.9, ALR inh 3 and Ecoli growth 0.68.
For C[C@H]1CN([C@@H](C)CO)C(=O)c2cc(C3=CCCC3)cnc2O[C@@H]1CN(C)Cc1ccc(F)cc1 the results were AF4-AF9 inh 2.7, FGF22 binding inactive, rRNA inh HTS -4, rRNA inh HTS OD600 -17 and rRNA inh HTS RFP 1.2.
For CCN(CC)Cc1c(C(=O)N/N=C/c2cccc(OCc3cccc(Cl)c3)c2)nnn1-c1nonc1N the results were AF4-AF9 inh -9.4, Vif A3G 0%, HNF4A DNA FP -1.7, FGF22 binding inactive, ALR inh -4, rRNA inh HTS 5, rRNA inh HTS OD600 10 and rRNA inh HTS RFP 0.6.
For C[C@@H]1CN([C@@H](C)CO)C(=O)c2cc(/C=C/c3ccccc3)cnc2O[C@@H]1CN(C)C(=O)Nc1ccccc1F the results were AF4-AF9 inh 7.4, FGF22 binding inactive, rRNA inh HTS -4, rRNA inh HTS OD600 0 and rRNA inh HTS RFP 6.3.
For Cc1cc(N2C(=O)c3ccc(C(=O)NCc4ccccc4)cc3C2=O)no1 the results were Vif A3G 5%, HNF4A DNA FP -4.5 and Ecoli growth 0.72.
Nc1nonc1/C(=N/O)N1CCCC1 was read as Vif A3G -2%, HNF4A DNA FP 0.3 and ALR inh 18.
Screening CC(C)c1cccc(C(C)C)c1NC(=O)CNCC(O)c1ccccc1 (configuration not stated) returned AF4-AF9 inh -1.0, Vif A3G -3%, HNF4A DNA FP -0.2, FGF22 binding inactive, Ecoli growth 0.68, rRNA inh HTS -13, rRNA inh HTS OD600 -12 and rRNA inh HTS RFP -1.6.
For CC1=C(Cl)C2=NS(=O)(=O)CCN2C=C1Cl the results were AF4-AF9 inh -0.4, Vif A3G 1%, HNF4A DNA FP 1.0, FGF22 binding inactive, ALR inh -8, Ecoli growth 0.67, rRNA inh HTS 14, rRNA inh HTS OD600 10 and rRNA inh HTS RFP -4.3.
For C[C@@H]1CN([C@@H](C)CO)S(=O)(=O)c2ccc(Br)cc2O[C@H]1CN(C)C(=O)CN(C)C the results were AF4-AF9 inh -2.5&-2.8, HNF4A DNA FP -2.7, FGF22 binding inactive, rRNA inh HTS 8&4, rRNA inh HTS OD600 12&11 and rRNA inh HTS RFP 0.0&1.2.
Screening Nc1ccc(S(=O)(=O)Nc2nccc(/C=C/c3cccc([N+](=O)[O-])c3)n2)cc1 returned AF4-AF9 inh -2.0, HNF4A DNA FP -1.4, FGF22 binding inactive, rRNA inh HTS 10, rRNA inh HTS OD600 9 and rRNA inh HTS RFP -4.7.
Screening COc1ccc(N(C(=O)c2ccc3c(c2)OCO3)C2C=CS(=O)(=O)C2)c(OC)c1 (configuration not stated) returned AF4-AF9 inh -2.8, HNF4A DNA FP 1.1, FGF22 binding inactive, ALR inh 1, Ecoli growth 0.66, rRNA inh HTS 4, rRNA inh HTS OD600 4 and rRNA inh HTS RFP -3.4.
For COc1ccc(-c2cn(CC[C@H]3CC[C@H](NS(=O)(=O)c4ccccc4C)[C@@H](CO)O3)nn2)cc1 the results were AF4-AF9 inh -2.4, FGF22 binding inactive, rRNA inh HTS -2, rRNA inh HTS OD600 1 and rRNA inh HTS RFP -0.1.
For Cc1cccc(OCC(=O)Nc2ccccc2N2CCN(C)CC2)c1 the results were AF4-AF9 inh 4.8, Vif A3G -6%, HNF4A DNA FP 3.8, FGF22 binding inactive, ALR inh -7, Ecoli growth 0.62, rRNA inh HTS 0, rRNA inh HTS OD600 0 and rRNA inh HTS RFP -1.2.
Screening CC1(C(=O)Nc2ccc3c(c2)OCCO3)CCC(=O)N1C1CC1 (configuration not stated) returned AF4-AF9 inh -2.4, HNF4A DNA FP -1.6, FGF22 binding inactive, rRNA inh HTS -1, rRNA inh HTS OD600 4 and rRNA inh HTS RFP 0.1.
Screening COC(=O)[C@H](C)[C@@H]1C[C@@]1(C)[C@@H](NC(=O)OCc1ccccc1)c1ccccc1 returned AF4-AF9 inh -2.6, Vif A3G 9%, HNF4A DNA FP -2.7, FGF22 binding inactive, rRNA inh HTS -13, rRNA inh HTS OD600 -38 and rRNA inh HTS RFP -12.
Cc1ccc(NC(=O)Nc2cccnc2)cc1 was read as AF4-AF9 inh -2.8, Vif A3G 0%, HNF4A DNA FP 1.5, FGF22 binding active, ALR inh 8, Ecoli growth 0.63, rRNA inh HTS 3, rRNA inh HTS OD600 3 and rRNA inh HTS RFP -1.9.

The final 2 records of the section above are carried over, then new ones follow.
Screening COC(=O)[C@H](C)[C@@H]1C[C@@]1(C)[C@@H](NC(=O)OCc1ccccc1)c1ccccc1 returned AF4-AF9 inh -2.6, Vif A3G 9%, HNF4A DNA FP -2.7, FGF22 binding inactive, rRNA inh HTS -13, rRNA inh HTS OD600 -38 and rRNA inh HTS RFP -12.
Cc1ccc(NC(=O)Nc2cccnc2)cc1 was read as AF4-AF9 inh -2.8, Vif A3G 0%, HNF4A DNA FP 1.5, FGF22 binding active, ALR inh 8, Ecoli growth 0.63, rRNA inh HTS 3, rRNA inh HTS OD600 3 and rRNA inh HTS RFP -1.9.
For Cc1ccc(-n2nc3c(c2NC(=O)c2ccc4c(c2)OCO4)CS(=O)(=O)C3)cc1 the results were AF4-AF9 inh 3.1, HNF4A DNA FP 4.2, FGF22 binding inactive, ALR inh -6, Ecoli growth 0.69, rRNA inh HTS -1, rRNA inh HTS OD600 -4 and rRNA inh HTS RFP -5.3.
Cc1ccc(C)c(N(CC(=O)NCc2ccccc2)C(=O)c2csnn2)c1 was read as AF4-AF9 inh -5.6, HNF4A DNA FP 1.9, FGF22 binding inactive, ALR inh 0 and Ecoli growth 0.59.
Screening Oc1c(/C=C/C=C/C=Nc2ccccc2)sc(=S)n1Cc1ccccc1 returned AF4-AF9 inh 2.2, Vif A3G 33%, HNF4A DNA FP 43*, FGF22 binding inactive, ALR inh -6 and Ecoli growth 0.67.
COc1cc(-n2c(N)c(C(=O)NCc3ccco3)c3nc4ccccc4nc32)cc(OC)c1OC was read as AF4-AF9 inh -0.7, Vif A3G inconclusive, HNF4A DNA FP 3.2, ALR inh -19, Ecoli growth 0.72, rRNA inh HTS -10, rRNA inh HTS OD600 0 and rRNA inh HTS RFP -6.2.
Screening CN1CCCN(c2ncnc3scc(-c4ccc(F)cc4)c23)CC1 returned AF4-AF9 inh 5.1, Vif A3G 12%, HNF4A DNA FP -1.5, FGF22 binding inactive, ALR inh -13, Ecoli growth 0.7, rRNA inh HTS -6, rRNA inh HTS OD600 -7 and rRNA inh HTS RFP -0.1.
`O=C(C(c1ccccc1)c1ccccc1)N1CCOCC1` gave Vif A3G -4%, HNF4A DNA FP -2.3, ALR inh -2 and Ecoli growth 0.75.
O=C(CCCn1c(=O)[nH]c2ccsc2c1=O)NC1CCCCC1 was read as AF4-AF9 inh 0.1, Vif A3G 5%, HNF4A DNA FP -0.7, FGF22 binding inactive, ALR inh 1, Ecoli growth 0.66, rRNA inh HTS 2, rRNA inh HTS OD600 8 and rRNA inh HTS RFP -0.4.
Screening O=C1CCCC2=C1C(c1ccccc1O)C1=C(CCCC1=O)O2 returned Vif A3G 1%, HNF4A DNA FP 0.7, ALR inh 6 and Ecoli growth 0.69.

From PubChem
